HIV Env fusion: inhibitors of HIV-1 Env-driven cell-cell fusion, primary screen, HeLa-JRFL effector, CEM21 target cells, luciferase. inhibition, % at 12.3 µM. 1.1% of 360,000 active;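 active = mean replicate inhibition score of at least 50 and every replicate individually at or above 50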;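 note: 0% = plate neutral controls and 100% = maraviroc near 300 nM; one replicate is shown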
Yeast UUG start: modulators of yeast start codon fidelity, primary screen, whole organism, S. cerevisiae, single point, plate reader; S. cerevisiae UUG-firefly luciferase reporter, luminescence/redox ratio; activity score, % at 18.7 µM; 0.13% of 350,000 active;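 active = replicate mean at a twofold rise or more, about +100% in these data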;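 note: firefly luciferase made from a UUG start codon reports start codon fidelity; reporter light over untreated wells divided by growth signal over untreated wells; some hits fall short of that in this replicate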
Numbers without * were called inactive; [ ] = dose if it differs, or a comment. The list is partial (hit frequency here may not be typical).

item	SMILES	HIV Env fusion	Yeast UUG start
1	C[C@H]1CCCCO[C@H](CN(C)C(=O)c2ccccc2)[C@@H](C)CN([C@@H](C)CO)C(=O)c2cc(NC(=O)Nc3ccc(C(F)(F)F)cc3)ccc2O1	39[16.7 µM]	-5
2	C[C@H](CO)N1C[C@H](C)[C@H](CN(C)C(=O)Nc2ccc3c(c2)OCO3)Oc2ncc(C#Cc3cccc(F)c3)cc2C1=O	0[16.7 µM]	-4
3	C[C@H](CO)N1C[C@H](C)[C@@H](CN(C)C(=O)Cc2cccnc2)Oc2ncc(C#CCc3ccccc3)cc2C1=O	23	-7
4	CNC[C@H]1Oc2ccc(NC(=O)C3CC3)cc2C(=O)N([C@@H](C)CO)C[C@@H]1C	6[16.7 µM]	-29
5	CN(C)CC(=O)N[C@@H]1CC[C@@H](CCn2cc(C3CC3)nn2)O[C@@H]1CO	-2[16.7 µM]	2
6	CCCC#Cc1ccc2c(c1)O[C@H](CN(C)C(=O)COC)[C@H](C)CN([C@H](C)CO)S2(=O)=O	-15[16.7 µM]	0
7	C[C@@H]1CN([C@@H](C)CO)C(=O)c2cccc(NS(=O)(=O)c3cccs3)c2O[C@@H]1CN(C)CC1CCCCC1	-25[16.7 µM]	2
8	C[C@@H]1CN([C@H](C)CO)C(=O)c2cc(Br)cnc2O[C@@H]1CN(C)S(=O)(=O)c1ccc(F)cc1	26[16.7 µM]	29
9	C[C@H](CO)N1C[C@H](C)[C@H](CN(C)Cc2ccc(Cl)c(Cl)c2)Oc2ccc(NC(=O)Cn3cnnn3)cc2C1=O	-7[16.7 µM]	-3
10	C/C=C/c1ccc([C@H]2[C@@H](CO)N(c3nc(-c4ccccc4)cs3)[C@H]2C#N)cc1	-11[16.7 µM]	-28
11	Cc1noc(C)c1NC(=O)Nc1ccc2c(c1)C(=O)N([C@@H](C)CO)C[C@H](C)[C@H](CN(C)Cc1ccccc1)O2	0[16.7 µM]	-10
12	C[C@@H](NC(=O)C[C@@H]1C=C[C@H](NS(=O)(=O)c2cccc(F)c2)[C@H](CO)O1)c1ccccc1	-16[16.7 µM]	1
13	O=[N+]([O-])c1cc(Br)ccc1C[n+]1ccccc1	-8	-19
14	Cc1ccc(S(=O)(=O)N(C)C[C@@H]2Oc3c(cccc3N(C)C)C(=O)N([C@@H](C)CO)C[C@H]2C)cc1	3[16.7 µM]	16
15	COc1ccccc1S(=O)(=O)N[C@@H]1CC[C@@H](CCNC(=O)C2CCC2)O[C@@H]1CO	3[16.7 µM]	-19
16	COc1ccc(S(=O)(=O)Nc2cccc3c2O[C@@H](CN(C)S(=O)(=O)c2ccccc2)[C@@H](C)CN([C@H](C)CO)C3=O)cc1	26[16.7 µM]	-8
17	C[C@H](CO)N1C[C@H](C)[C@H](CN(C)S(=O)(=O)c2ccc(Cl)cc2)OCCCC[C@H](C)Oc2ccc(NC(=O)Cc3ccccc3)cc2C1=O	21[16.7 µM]	-9
18	O=C(C[C@@H]1C[C@H]2c3cc(NC(=O)Nc4ccccc4)ccc3O[C@H]2[C@@H](CO)O1)NCc1cccnc1	18[16.7 µM]	-17
19	C=CCOC(=O)[C@H]1[C@@H]2C(=O)O[C@@H](c3ccccc3)[C@@H](c3ccccc3)N2[C@@H](c2ccc(OCCOC(=O)[C@@H]3C[C@@H]4C(=O)N[C@@H](CC(C)C)C(=O)N4[C@@H]3c3ccc(O)cc3)cc2)[C@]12C(=O)Nc1ccc(I)cc12	-2[16.7 µM]	1
20	COc1ccc(S(=O)(=O)Nc2ccc3c(c2)CC(=O)N([C@H](C)CO)C[C@@H](C)[C@@H](CN(C)C(=O)Nc2c(C)noc2C)O3)cc1	-11[16.7 µM]	-4
21	C[C@@H]1CCCCO[C@H](CN(C)C(=O)CCCN(C)C)[C@@H](C)CN([C@H](C)CO)C(=O)c2cc(NC(=O)Nc3ccc(F)cc3)ccc2O1	-13[16.7 µM]	-7
22	O=C(C[C@@H]1CC[C@@H]2[C@H](COC[C@@H](O)CN2S(=O)(=O)c2cccc(Cl)c2)O1)N1CCCCC1	6[16.7 µM]	-2
23	COC(=O)C[C@H]1CC[C@@H]2[C@@H](COc3ccc(NC(=O)c4ccccc4OC)cc3C(=O)N2C)O1	-14[16.7 µM]	15
24	C[C@H]1CN([C@@H](C)CO)C(=O)Cc2cc(NS(=O)(=O)c3cccs3)ccc2O[C@@H]1CN(C)S(=O)(=O)c1ccc(Cl)cc1	-16[16.7 µM]	6
25	C[C@@H]1CN([C@@H](C)CO)S(=O)(=O)c2ccc(C3=CCCCC3)cc2O[C@@H]1CN(C)C(=O)c1ccc(F)cc1	-48[16.7 µM]	2
26	C[C@@H]1CN([C@H](C)CO)C(=O)c2cc(NC(=O)Cc3ccccc3)ccc2O[C@@H](C)CCCCO[C@@H]1CN(C)C(=O)C1CCCCC1	-71[16.7 µM]	5
27	C[C@@H]1CN([C@H](C)CO)C(=O)c2cccc(NS(=O)(=O)c3ccc(Cl)cc3)c2O[C@@H]1CN(C)S(=O)(=O)c1cn(C)cn1	-39[16.7 µM]	-13
28	COc1ccc(NC(=O)N(C)C[C@H]2Oc3ccc(NC(=O)Nc4ccccc4)cc3CC(=O)N([C@@H](C)CO)C[C@@H]2C)cc1	3[16.7 µM]	17
29	O=C(NCC[C@@H]1CC[C@H](NC(=O)C2CCCC2)[C@@H](CO)O1)Nc1ccc(Cl)cc1	23[16.7 µM]	9
30	COc1ccc(CNC(=O)C[C@H]2C[C@H]3c4cc(NC(=O)CN(C)C)ccc4O[C@H]3[C@H](CO)O2)cc1	-12[16.7 µM]	9

item	SMILES	HIV Env fusion	Yeast UUG start
31	C[C@@H]1CN([C@@H](C)CO)C(=O)c2cccc(NS(=O)(=O)c3ccc(F)cc3)c2O[C@H]1CN(C)C(=O)Nc1ccc(C(F)(F)F)cc1	22[16.7 µM]	-4
32	COc1ccc(CN(C)C[C@@H]2Oc3ccc(NS(=O)(=O)c4ccc(OC)cc4)cc3CC(=O)N([C@H](C)CO)C[C@H]2C)cc1	16[16.7 µM]	-13
33	C[C@H](CO)N1C[C@H](C)[C@H](CN(C)Cc2ccc(C(=O)Nc3ccccc3N)cc2)Oc2ccc(N(C)C)cc2CC1=O	-154[16.7 µM]	16
34	COc1cccc(C#Cc2ccc3c(c2)O[C@H](CN(C)C)[C@H](C)CN([C@H](C)CO)S3(=O)=O)c1	-12[16.7 µM]	7
35	COc1ccc(NC(=O)N(C)C[C@@H]2Oc3ccc(NC(=O)Nc4cccc5ccccc45)cc3CC(=O)N([C@H](C)CO)C[C@@H]2C)cc1	-7[16.7 µM]	-5
36	Cc1ccc(S(=O)(=O)Nc2cccc3c2O[C@@H](CN(C)C(=O)Nc2ccccc2)[C@H](C)CN([C@H](C)CO)C3=O)cc1	41[16.7 µM]	7
37	CC(C)NC(=O)NCC[C@@H]1CC[C@H](NS(=O)(=O)c2ccc(-c3ccccc3)cc2)[C@H](CO)O1	-2[16.7 µM]	5
38	O=C(NCC[C@H]1CC[C@@H](NC(=O)c2cccnc2)[C@H](CO)O1)Nc1ccc(F)cc1	6[16.7 µM]	2
39	C[C@H]1CN([C@@H](C)CO)C(=O)c2cc(C#Cc3ccccn3)cnc2O[C@H]1CN(C)C(=O)c1cnccn1	-6[16.7 µM]	-6
40	CCC(=O)N(C)C[C@@H]1Oc2cc(C#CC3(O)CCCC3)ccc2S(=O)(=O)N([C@H](C)CO)C[C@H]1C	-9[16.7 µM]	12
41	C[C@H](CO)N1C[C@H](C)[C@@H](CN(C)Cc2ccccc2)Oc2cc(C#CC(C)(C)O)ccc2S1(=O)=O	-10[16.7 µM]	0
42	O=S(=O)(N[C@H]1CC[C@H](CCn2cc(-c3ccccn3)nn2)O[C@@H]1CO)c1cccc(Cl)c1	19[16.7 µM]	-7
43	COc1ccc(S(=O)(=O)N(C)C[C@@H]2Oc3ccc(NC(=O)NC(C)C)cc3CC(=O)N([C@H](C)CO)C[C@@H]2C)cc1	-1[16.7 µM]	10
44	Cc1ccccc1-c1ccc2c(c1)O[C@@H](CN(C)C(=O)Nc1ccc(C(F)(F)F)cc1)[C@@H](C)CN([C@@H](C)CO)S2(=O)=O	6[16.7 µM]	14
45	C[C@@H]1CCCCO[C@H](CN(C)Cc2ccc3c(c2)OCO3)[C@@H](C)CN([C@H](C)CO)C(=O)c2cc(NC(=O)Nc3cccc4ccccc34)ccc2O1	-6[16.7 µM]	15
46	C[C@H](CO)N1C[C@H](C)[C@H](CN(C)C(=O)Nc2ccc(C(F)(F)F)cc2)OCCCC[C@H](C)Oc2ccc(NC(=O)C3CCCCC3)cc2C1=O	10[16.7 µM]	-13
47	CCC(=O)N1C[C@H](O)COC[C@H]2O[C@@H](CC(=O)NCC3CCCCC3)CC[C@@H]21	18[16.7 µM]	-10
48	C[C@@H]1CN([C@@H](C)CO)S(=O)(=O)c2ccc(Br)cc2O[C@H]1CN(C)C(=O)CC1CC1	14[16.7 µM]	-6
49	C[C@H](O)C#Cc1cnc2c(c1)C(=O)N([C@H](C)CO)C[C@@H](C)[C@@H](CN(C)C(=O)c1ccccc1)O2	-5[16.7 µM]	-5
50	C[C@@H]1CN([C@@H](C)CO)C(=O)c2cc(NC(=O)Nc3ccccc3)ccc2O[C@@H]1CN(C)S(=O)(=O)c1ccccc1	-28[16.7 µM]	9
51	C[C@@H]1CN([C@@H](C)CO)C(=O)c2cc(NC(=O)C3CCCCC3)ccc2O[C@H]1CN(C)C(=O)Nc1cccc2ccccc12	18[16.7 µM]	-5
52	O=C(NCC[C@H]1CC[C@@H](NS(=O)(=O)c2cccc(Cl)c2)[C@@H](CO)O1)c1cnccn1	18[16.7 µM]	12
53	C[C@H]1CCCCO[C@H](CN(C)C(=O)c2ccccc2)[C@@H](C)CN([C@@H](C)CO)C(=O)c2cc(NC(=O)Nc3ccc(F)cc3)ccc2O1	-1[16.7 µM]	-3
54	CO[C@H]1CN(C)C(=O)c2cc(NC(=O)c3ccccc3)ccc2OC[C@H](C)N(C(=O)C2CC2)C[C@H]1C	-21[16.7 µM]	3
55	C[C@@H]1CN([C@@H](C)CO)S(=O)(=O)c2ccc(-c3cccnc3)cc2O[C@@H]1CN(C)C(=O)NC1CCCC1	1[16.7 µM]	-6
56	COc1ccccc1CNC(=O)C[C@@H]1C[C@@H]2c3cc(NS(C)(=O)=O)ccc3O[C@@H]2[C@@H](CO)O1	-10[16.7 µM]	-9
57	C[C@@H]1CCCCO[C@@H](CN(C)S(=O)(=O)c2ccc(Cl)cc2)[C@H](C)CN([C@@H](C)CO)C(=O)c2cc(NC(=O)Nc3ccc4c(c3)OCO4)ccc2O1	3[16.7 µM]	-17
58	C[C@@H]1CN([C@@H](C)CO)C(=O)c2cc(NC(=O)Nc3ccc(C(F)(F)F)cc3)ccc2O[C@@H](C)CCCCO[C@@H]1CN(C)Cc1ccncc1	12[16.7 µM]	-8
59	COc1ccc(NC(=O)N(C)C[C@@H]2Oc3ncc(-c4cccnc4)cc3C(=O)N([C@H](C)CO)C[C@H]2C)cc1	17[16.7 µM]	-8
60	C[C@@H]1CCCCO[C@H](CN(C)S(=O)(=O)c2ccccc2)[C@H](C)CN([C@H](C)CO)C(=O)c2cc(NC(=O)Nc3cccc4ccccc34)ccc2O1	-85[16.7 µM]	-7

item	SMILES	HIV Env fusion	Yeast UUG start
61	C[C@@H]1CCCCO[C@@H](CN(C)C(=O)CCCN(C)C)[C@H](C)CN([C@@H](C)CO)C(=O)c2cc(NC(=O)c3ccncc3)ccc2O1	2[16.7 µM]	-8
62	Cc1ccc(S(=O)(=O)Nc2ccc3c(c2)C(=O)N([C@@H](C)CO)C[C@@H](C)[C@@H](CN(C)Cc2ccc(C(=O)O)cc2)O3)cc1	-9[16.7 µM]	15
63	C[C@@H]1CN([C@H](C)CO)C(=O)c2cccc(NC(=O)c3nc4ccccc4s3)c2O[C@@H]1CN(C)CC1CC1	-26[16.7 µM]	4
64	CC(C)NC(=O)N(C)C[C@H]1Oc2ccc(NC(=O)C3CC3)cc2CC(=O)N([C@H](C)CO)C[C@@H]1C	10[16.7 µM]	3
65	C[C@H](CO)N1C[C@H](C)[C@@H](CN(C)C(=O)Nc2ccc3c(c2)OCO3)OCCCC[C@H](C)Oc2ccc(NC(=O)Nc3ccc4c(c3)OCO4)cc2C1=O	-2[16.7 µM]	-3
66	CCCC#Cc1cnc2c(c1)C(=O)N([C@H](C)CO)C[C@H](C)[C@H](CN(C)C(=O)Nc1ccccc1OC)O2	-1[16.7 µM]	16
67	C[C@H]1CN([C@@H](C)CO)C(=O)Cc2cc(NS(=O)(=O)c3cn(C)cn3)ccc2O[C@H]1CN(C)Cc1ccccc1	18[16.7 µM]	-7
68	C[C@H]1CN([C@@H](C)CO)C(=O)c2cc(C#Cc3ccccc3)cnc2O[C@H]1CN(C)C(=O)c1ccccc1	6[16.7 µM]	25

Part of the list above, screen by screen.
(61) C[C@@H]1CCCCO[C@@H](CN(C)C(=O)CCCN(C)C)[C@H](C)CN([C@@H](C)CO)C(=O)c2cc(NC(=O)c3ccncc3)ccc2O1
(62) Cc1ccc(S(=O)(=O)Nc2ccc3c(c2)C(=O)N([C@@H](C)CO)C[C@@H](C)[C@@H](CN(C)Cc2ccc(C(=O)O)cc2)O3)cc1
(63) C[C@@H]1CN([C@H](C)CO)C(=O)c2cccc(NC(=O)c3nc4ccccc4s3)c2O[C@@H]1CN(C)CC1CC1
(64) CC(C)NC(=O)N(C)C[C@H]1Oc2ccc(NC(=O)C3CC3)cc2CC(=O)N([C@H](C)CO)C[C@@H]1C
(65) C[C@H](CO)N1C[C@H](C)[C@@H](CN(C)C(=O)Nc2ccc3c(c2)OCO3)OCCCC[C@H](C)Oc2ccc(NC(=O)Nc3ccc4c(c3)OCO4)cc2C1=O

Screen / compound no. | 61 | 62 | 63 | 64 | 65
HIV Env fusion | 2[16.7 µM] | -9[16.7 µM] | -26[16.7 µM] | 10[16.7 µM] | -2[16.7 µM]
Yeast UUG start | -8 | 15 | 4 | 3 | -3

Bioassay records: PubChem BioAssay, Broad Institute
